fixLJ activator – increases Burkholderia fixLJ two-component signaling; z-score (concentration not given with the values); AID 1918990; B. multivorans fixK-promoter GFP reporter, 18 h; hits give high values; 29,000 tested, 0.3% active;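 active means replicate mean overnight rise in green fluorescent reporter signal, 3 or more SD over negative controls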;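 further: score is relative to vehicle wells of the plate; 300 nL library stock went into each well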
An asterisk follows results filed as active. The list is partial; the hit share may differ from the screen's.

SMILES	fixLJ activator
CCN(CC=Cc1ccccc1)C(=O)CCc1nc(-c2ccncc2)no1	-0.63
COc1ccccc1Nc1c2c(nc3ccc(NC(=O)c4cccc(OC)c4OC)cc13)CCCC2	0.26
Cc1cccc(C)c1OCc1nc2c3cnn(-c4cccc(F)c4)c3ncn2n1	-1.56
CCC(CC)c1nn2c(=O)cc(COc3ccc(NC(=O)c4cccc(C)c4)cc3)nc2s1	-0.15
Cc1c(C(=O)OCc2ccccc2)[nH]c2c1C(=O)CC(c1ccc(Cl)cc1)C2 (stereo not drawn)	-0.98
CCOc1ccc(NC(=O)Cn2c(=O)n(-c3ccccc3)c(=O)c3c4c(sc32)CCCC4)cc1	-1.03
Cc1ccc(S(=O)(=O)N(CCc2ccccc2)CC(=O)Nc2ccc(Br)cc2)cc1	3.11*
Cc1cn2c(=O)cc(COc3ccccc3NC(=O)c3ccc(C(C)(C)C)cc3)nc2s1	0.02
CCOC(=O)c1sc2ncn(CC(=O)Nc3ccc(OCC)cc3)c(=O)c2c1C	-0.15
CC(C)CC(NC(=O)C1(N(C)C)Cc2ccccc2C1)c1ncnn1C (stereo not drawn)	-0.49
O=c1c2cnn(-c3ccc(F)cc3)c2ncn1Cc1cccc(Cl)c1	-0.83
Cc1ccc(S(=O)(=O)c2nc(-c3ccco3)oc2SC(C)c2ccccc2)cc1 (stereo not drawn)	-1.26

Of the compounds above, these contain a Cl atom.
SMILES	fixLJ activator
Cc1c(C(=O)OCc2ccccc2)[nH]c2c1C(=O)CC(c1ccc(Cl)cc1)C2 (stereo not drawn)	-0.98
O=c1c2cnn(-c3ccc(F)cc3)c2ncn1Cc1cccc(Cl)c1	-0.83

(next part)
SMILES	fixLJ activator
Cc1ccc(CN(Cc2ccco2)C(=O)c2oc3c(C)c(C)ccc3c2C)cc1	0.03
O=C(CN1CCOCC1)NC(c1cnc2ccccc2c1)C1CC(O)C1 (stereo not drawn)	1.92
CC(C)C(=O)Nc1cc(NC(=O)N2CCCC(c3ccn[nH]3)C2)ccc1F (stereo not drawn)	-0.11
Cc1ccc(NC(=O)c2c(NC(=O)C(F)(F)F)sc3c2CCCCC3)cc1	-6.59
CCCc1nc(N2CCCC(c3nc(-c4ccccc4)no3)C2)no1 (stereo not drawn)	1
CCOC(=O)c1ccc(NC(=O)Cn2nc(SC)c(S(=O)(=O)c3ccc(Cl)cc3)c2N)cc1	0.95
O=C(CCCn1cncn1)NCc1nc(Cc2cccs2)no1	0.7
Cc1noc(C)c1C1CCCN1C(=O)NCc1ccc(C(=O)O)o1 (stereo not drawn)	0.04
Cc1cnc(Cn2cnc(-c3ccccc3)c2CCn2nc(C)cc2C)cn1	-0.23
O=C(Cn1c(=O)n(-c2ccccc2)c(=O)c2c3c(sc21)CCCC3)Nc1ccc(F)cc1	-1.59
COCCNC(=O)c1cc2c(s1)CCOC21CCN(c2ccnc(C)n2)CC1	-0.06
CN(Cc1nc(-c2cccnc2)no1)C(=O)CCCn1cncn1	-0.86

2 records picked at random from those above, as already listed:
SMILES	fixLJ activator
CC(C)C(=O)Nc1cc(NC(=O)N2CCCC(c3ccn[nH]3)C2)ccc1F (stereo not drawn)	-0.11
Cc1noc(C)c1C1CCCN1C(=O)NCc1ccc(C(=O)O)o1 (stereo not drawn)	0.04

(listing goes on)
SMILES	fixLJ activator
Cc1ccc(-n2ncc3c(=O)n(Cc4ccccc4C)cnc32)cc1C	-0.15
CCc1nn2c(=O)c(S(=O)(=O)Nc3ccc(C)cc3C)c(C)nc2s1	-1.57
Cn1nc(-c2ccccc2F)c2cc(C(=O)NCc3ccccc3Cl)sc21	0.57
COc1ccc(C(=O)Oc2cc(-c3ccc4c(c3)OCO4)cc(=O)c3c(C)oc(C)c23)cc1	-0.52
CC(C)c1ccc(NC(=O)c2cnn3c(C(F)F)cc(-c4ccccc4)nc23)cc1	-0.83
Cc1ccc(OCC(=O)Nc2ccc(Cl)cc2C(=O)c2ccccc2)c(Br)c1	0.72
CC(C(=O)O)c1ccc2c(c1)[nH]c1ccc(Cl)cc12 (stereo not drawn)	-1.78
Cc1ccc2nc(-c3cccc(NC(=O)c4cccc5ccccc45)c3)oc2c1	-2.22
CCOc1cccc(C(=O)Nc2cc(-c3ccc(C)cc3)no2)c1	-0.78
CCN(CC)c1sc(S(=O)(=O)c2ccccc2)nc1S(=O)(=O)c1ccc(C)cc1	-0.24
O=C(c1ccc2c3c([nH]c2c1)CCCC3)N1CC(O)C(Cc2cnccn2)C1 (stereo not drawn)	0.65
O=C1NCC2(CCCN(C(=O)c3cnn(Cc4ccccc4)c3)CC2)O1 (stereo not drawn)	0.02
CCOc1ccc(S(=O)(=O)c2cn(Cc3ccccc3)c3ccc(OCC)cc3c2=O)cc1	0.3
COc1ccc(CNc2cc(-c3ccc(OC)cc3)nc3nncn23)cc1	-3.7
CCCN1C(=O)C(O)(CC(=O)c2ccc(OC)c(OC)c2)c2ccccc21 (stereo not drawn)	0.44
Nc1ncnc2c1ncn2[C@@H]1O[C@H](CO)[C@@H](O)[C@H]1O	-0.35
COC(=O)c1cc2sc(Cl)cc2n1Cc1nc(-c2ccccc2F)oc1C	-0.88
CCOC(=O)c1cnc2c(C)cccc2c1Nc1ccc(OC(C)C)cc1	-0.21
O=C(CN(CCc1ccccc1)S(=O)(=O)c1ccccc1)NCc1ccc(Cl)cc1	0.81
COCCC(=O)Nc1ccc2c(c1)CN(C(=O)CSc1ccccc1)CC2	1.49
COc1ccccc1-c1cc(C(=O)Nc2ccccc2C(F)(F)F)no1	0.18
Cc1ccc(S(=O)(=O)NC(=O)NN2CC3CCCC3C2)cc1 (stereo not drawn)	-0.84
CCOc1ccc(Nc2c(S(=O)(=O)c3ccc(C)cc3)cnc3ccc(OC)cc23)cc1	0.14
Cc1ccc(NC(=O)CCc2c(C)nc3c(-c4ccccc4)c(C)nn3c2C)c(C)c1	-0.43
Cc1c(OCC(F)(F)F)ccnc1CS(=O)c1nc2ccccc2[nH]1 (stereo not drawn)	-1.19
CC(C)Oc1cccc(C(=O)N2CCc3c(nc[nH]c3=O)C2)c1	-1.8
Cc1ccc(CNC(=O)NCc2cc3n(n2)CCN(C(=O)N(C)C)C3)cc1	0.53
COc1ccc(CCn2c3c(c(=O)[nH]c2=O)C(NC(=O)c2ccc(Cl)cc2)(C(F)(F)F)C(=O)N3)cc1OC (stereo not drawn)	-0.83
O=C(CCc1cccc(Cl)c1)N1CCC(O)[C@@]2(CCCNC2=O)C1 (stereo partly drawn)	-0.02
O=C1CN(c2ccc(C(=O)NC3(c4cc(F)ccc4F)CC3)cc2)C(=O)N1	0.54
O=C(C1CCOCC1)N1CCCC1c1nc2ccc(F)cc2[nH]1 (stereo not drawn)	-0.18
CC(NC(=O)C1CCN(S(=O)(=O)c2ccc3nc4c(c(C(=O)O)c3c2)CCCC4)CC1)c1ccccc1 (stereo not drawn)	0.12
COC[C@]1(O)CCN(C(=O)NCc2ccc(Cl)cc2Cl)CC1(C)C	-2.36
Cn1c(CN2CCCCC2)nnc1C1CCN(c2ncccc2F)CC1	-2.26
CCOC(=O)c1c(C)c(-c2ccccc2)n(CC(=O)NC2CCCCC2)c1C	0.62
Cc1ccc2oc(C(=O)Nc3ccc(S(=O)(=O)Nc4nccc(C)n4)cc3)cc(=O)c2c1	-1.52
CCN1CCN(C(=O)Nc2ccccc2C(C)C)C2CS(=O)(=O)CC21 (stereo not drawn)	-1.37
Cc1cc(C)n2nc(C(=O)N3CCC(C(O)c4nccn4C)CC3)nc2n1 (stereo not drawn)	-0.24
COCCC(=O)N1CCC[C@]2(C1)CN(C1CCCCC1)CCC2O (stereo partly drawn)	-1.05
COc1cc(C(=O)Nc2c(C(=O)Nc3ccccc3F)oc3ccccc23)cc(OC)c1OC	-0.71
O=C(Nc1onc2c1CCCC2)c1ccc(Cl)cc1	-1.29
O=C(Cn1c(=O)n(Cc2ccco2)c(=O)c2sc3ccccc3c21)Nc1ccc(F)cc1F	0.04
C[C@H](NC(=O)OC(C)(C)C)c1nnc(SCc2c(F)cccc2Cl)o1	-1.69
COc1ccc(C2C(C(=O)Nc3cccnc3)=C(C)Nc3nc(-c4ccc(OC)c(OC)c4)nn32)cc1 (stereo not drawn)	0.54
Cc1cc(C(F)F)n2nc(C(=O)Nc3c(C)cccc3C)nc2n1	-1.03
O=C(Nc1sc2c(c1C(=O)NCC1CCCO1)CCC2)c1cc(=O)c2ccccc2o1 (stereo not drawn)	-2.18
Cc1ccc(-c2nnc(Nc3cccc(Cl)c3)c3ccccc23)cc1S(=O)(=O)N1CCN(C)CC1	-1.52
CCOc1ccc(NC(=O)N2CC3CCC(C2)N(CC2CC2)C3=O)cc1 (stereo not drawn)	-4.05
Cc1ccc(-n2c(-c3ccco3)nc3c(cnn3-c3ccc(C)cc3)c2=O)cc1	-0.39
Cc1cccc2nc(Cn3c(=O)n(-c4ccccc4)c(=O)c4c5c(sc43)CCC5)cc(=O)n12	-1.43
COC(=O)c1ccc([C@@H]2Nc3c(cccc3C(F)(F)F)[C@@H]3C=CC[C@@H]32)cc1	1.18
Cc1cc(C)n(-c2nc3ccccc3nc2N2CCN(c3cccc(C(F)(F)F)c3)CC2)n1	-0.06
CCCn1cc(NC(=O)NCc2csc3c2CCCC3)nn1	-2.69
O=C(CCCn1c2ccccc2c(=O)c2ccccc21)Nc1ccc(F)cc1Cl	-0.38
O=C(Nc1ccc(F)cc1F)c1cccc2c1C(=O)N(C1CCCCC1)C2	-0.51
Cc1ccc(CNC(=O)c2ccc3c(c2)N(Cc2cccc(Cl)c2)C(=O)CS3)cc1	0.45
COc1ccc(N2CCN(C(=O)COc3ccccc3C#N)CC2)cc1	-1.82
COc1ccc(NC(=O)C2=C(C)Nc3nc(SCc4ccccc4C)nn3C2c2ccc(Br)cc2)cc1 (stereo not drawn)	-0.36
Cn1nnnc1SCCNCc1ccccc1Cl	-2.53
CC(C(=O)Nc1ccccc1)n1nnc2sc3c(c2c1=O)CCCC3 (stereo not drawn)	-1.02

Next section
SMILES	fixLJ activator
CCOc1ccc2nc(N3CCCC(C(=O)NCc4ccc(C)cc4)C3)sc2c1 (stereo not drawn)	-1.19
COCCCNc1nc2c(c(=O)[nH]c(=O)n2C)n1CC(O)COc1ccc(Cl)cc1 (stereo not drawn)	0.26
CCN1CCN(c2ccc(NS(=O)(=O)c3c(C)nc4sccn4c3=O)cc2Cl)CC1	-0.45
CCCOc1ccc(CNC(=O)Cn2c(=O)oc3ccccc32)cc1	-0.79
CN(Cc1noc(C2CCC2)n1)C(=O)c1scc2c1CCCC2	-0.09
Cc1cc(C(=O)N2CC3CCC(C2)N(Cc2c(C)noc2C)C3=O)n(C)n1 (stereo not drawn)	-1.14
CCCC1=Nc2cc(C(=O)NCc3ccc(OC)cc3)ccc2Sc2ccc(C)cc21	0.64
CCOC(=O)c1ccc(NC(=O)CSc2c3c(nc4cc(Cl)ccc24)CCCC3)cc1	-1.84
O=C(NCc1noc(-c2c(F)cccc2F)n1)c1ccc(=O)[nH]c1	-0.02
Cc1ccc(NC(=O)Cn2c(=O)n(Cc3ccc4c(c3)OCO4)c(=O)c3ccc(C(=O)NC4CCCCC4)cc32)cc1	-0.99
CCC(C)(C)C(=O)NC1COCC1Cc1ccnc2ccccc12 (stereo not drawn)	-2.17
COCCn1ccnc1CNC(c1cccnc1)c1ccc(C)c(C)c1 (stereo not drawn)	0.15
CN(C)C(=O)CCC(=O)NC1CCOCC1Oc1ccc(CO)cc1 (stereo not drawn)	0.4
CNc1cc(C(=O)NC2CCOCC2Oc2ccc(CO)cc2)ccn1 (stereo not drawn)	1.14
CCOC(=O)Cc1cc(C(=O)Nc2ccc(Br)cc2)sc1-c1ccc(C)cc1	1.57
CCOc1ccccc1C(=O)N(Cc1ccc(N(C)C)cc1)Cc1ccco1	-1.02
CCCNC(C)C(=O)Nc1ccccc1C (stereo not drawn)	-3.3
CCn1c(=O)c2cc(C(=O)N3CCN(c4cccc(OC)c4)CC3)sc2c2ccccc21	1.85
Cc1ccc(OCC(=O)Nc2ccc3c(c2)nc(CCNC(=O)c2ccco2)n3C)cc1	1.39
O=C(Nc1ccc(C(F)(F)F)cc1)C1CCCN(c2cnccn2)C1 (stereo not drawn)	-1.14
O=C(c1cccs1)c1cn(CCOc2ccc(F)cc2)c2ccccc12	2.69
COc1cc(OC)cc(-c2nnc(SCC(=O)c3ccc([N+](=O)[O-])cc3)o2)c1	-1.27
Cc1ccc(C)c(Cn2c3ccccc3c3cnn(CC(=O)NCCCc4ccccc4)c(=O)c32)c1	-1.68
COc1cccc2c1C1(CCN(C(=O)c3cccc(N4CCNC4=O)c3)CC1)OCC2	-1.61

3 entries out of the list, arranged by formula weight, falling:
SMILES	fixLJ activator
Cc1ccc(C)c(Cn2c3ccccc3c3cnn(CC(=O)NCCCc4ccccc4)c(=O)c32)c1	-1.68
CCOC(=O)Cc1cc(C(=O)Nc2ccc(Br)cc2)sc1-c1ccc(C)cc1	1.57
CCOc1ccccc1C(=O)N(Cc1ccc(N(C)C)cc1)Cc1ccco1	-1.02

The listing continues.
SMILES	fixLJ activator
O=C1CCC(CN(Cc2ccccn2)C(=O)CN2CCOc3ccccc3C2)N1 (stereo not drawn)	-0.24
CCc1cccc(C)c1Nc1c(-c2ccccc2)nc2sccn12	-0.37
COc1cc(NC(=O)c2nc3cc(C)c(C)cc3n(C)c2=O)cc(OC)c1OC	-2.31
CCCCn1c(=NC(=O)C(C)(C)Oc2ccc(Cl)cc2)c(C(=O)OCC)cc2c(=O)n3ccccc3nc21	0.53
Cc1ccc(NC(=O)/C=C/c2ccccc2)c(Br)c1	2.31
COc1ccccc1CCC(=O)NC1CCC(NC(=O)C2(C#N)CCOCC2)C1 (stereo not drawn)	0.45
